Screening data: PubChem BioAssay, several laboratories
Sa ugtP lethal: compounds lethal to S. aureus RN4220 ugtP deletion mutant; OD600 growth, 16 h; some inactives read as strong as hits; growth inhibition, % (concentration not given with the values); 0.54% of 330,000 active;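 active = z-score under -3 and OD600 up to 0.15 on both plates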;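 note: plate controls were untreated wells for no effect and antibiotic for full effect; wells of about 80 µL received 100 nL stock; the first replicate is given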
Mtb hypoxia rep: inhibitors of hypoxia-regulated fluorescent reporter in Mycobacterium tuberculosis; M. tuberculosis hypoxia-regulated fluorescent reporter, fluorescence; fluorescence inhibition, % (concentration not given with the values); 0.1% of 300,000 active;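 active = 35 to 45% if threefold the growth effect, above 45% if 1.5-fold the growth effect; inactive = the rest, general growth blockers included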;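 note: wells of about 50 µL received 100 nL stock; 0% = vehicle wells and 100% = reference inhibitor wells; whole bacteria with a GFP reporter of the hypoxia response; strong numbers were not always called active; many hits fall short of the cut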
BJeLR viability: BJeLR cell viability loss; BJeLR (HRASV12) viability, CellTiter-Glo ATP luminescence, 48 h; reference of the scale not given here; inhibition, % (no concentration beside the values); 0.17% of 300,000 active;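 active = replicate mean above 50%; inconclusive = above 50% but judged a plate artefact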;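 note: 50 nL library stock added to about 25 µL; numbers are from one replicate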
Bead autofluor: flagged as autofluorescent in microsphere protease counterscreen; compound autofluorescence counterscreen, microsphere flow cytometry; active compounds read high; fluorescence intensity (no concentration beside the values); 3.1% of 360,000 active; AID 624483;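 active = at least 3 SD above the mean of all compounds, about 16000 in these data; inconclusive = too few beads counted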;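 note: 100 nL of 1 mM stock went into each well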
PrP UTR inh: inhibition of PrP 5' UTR reporter expression | cell-based PrP 5' UTR mRNA reporter, plate reader | AID 488862 | inhibition, % (no concentration beside the values) | 0.35% of 340,000 active;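 active = every replicate at 50% or more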;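 note: 0 = median of the neutral control wells; tested in H4 reporter cells; numbers are from one replicate; inactives centre near -14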
Sa RN4220 lethal: S. aureus RN4220 growth inhibition | AID 1259311 | OD600, 16 h | inhibition, % (test concentration not listed) | 0.33% of 330,000 active;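 active = z-score of -3 or lower and OD600 up to 0.18 on both plates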;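 note: plate controls were untreated cells for no effect and reference antibiotic for full effect; stock transfer was 100 nL into about 80 µL; one replicate is shown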
Mtb hypoxia rep growth: recorded beside Mtb hypoxia rep, whose call it bears; growth inhibition, %; measured here: M. tuberculosis growth (absorbance);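 0% = vehicle and 100% = reference antibiotic; read after six days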
An asterisk follows results filed as active; ? = inconclusive; . = not tested or not shown.

cpd	smiles	Sa ugtP lethal	Mtb hypoxia rep	Bead autofluor	Mtb hypoxia rep growth	BJeLR viability	PrP UTR inh	Sa RN4220 lethal
1	CCOC(=O)C(NC(=O)N1CCCCC1)(c1ccccc1)C(F)(F)F (stereo not drawn)	0	9	3134	3	2	-5	1.2
2	NC(=O)[C@@H]1CCCN1C(=O)c1cc(COc2ccc(F)cc2F)on1	2	6	6177	-2	0	-1	6.0
3	CCOC(=O)Cn1c(=N)n(CCOc2ccc(OC)cc2)c2ccccc21	10	9	3442	8	3	-4	5.8
4	O=C(Nc1ccccc1)OCC1CCCO1 (stereo not drawn)	0	12	4440	6	-16	-39	2.3
5	CC(=O)Nc1ccc(C=NOCC(=O)Nc2ccc(C)cc2)cc1	9	19	.	7	.	.	4.9
6	Cc1ccc(NC(=S)Nc2ccc(OC(F)F)c(Cl)c2)cc1Cl	67	3	2439	12	8	-28	75
7	O=C(Nc1ccc(S(=O)(=O)Nc2ncccn2)cc1)c1ccco1	2	16	9670	21	-7	-5	0.2
8	CCN(CC(=O)NCc1ccc(F)cc1)CC(=O)Nc1ccc(Br)cc1F	7	15	2750	2	.	-18	2.8
9	CC(=O)Oc1ccc(C(C)=NN2CCN(Cc3ccc(C)cc3)CC2)cc1	6	2	.	-6	.	.	-0.4
10	O=C(NC1CC1)c1ccc(CS(=O)(=O)c2c(Cl)cccc2Cl)o1	2	.	6263	.	-1	-34	2.6
11	COC(=O)C1=C(C)N(C(C)c2ccccc2)C(=O)/C1=C\c1ccco1 (stereo not drawn)	17	5	4264	13	3	-30	4.2
12	O=C1CC(c2ccco2)CC(O)=C1C=Nc1cc(Cl)ccc1O (stereo not drawn)	1	6	4222	7	-10	-18	0.0
13	Cc1ccc2c(cnn2C(=O)CCC(=O)NCc2ccccc2Cl)c1	-7	6	6035	6	-2	7	-5.9
14	Cc1ccc(NC(=O)COC(=O)[C@H](C)NC(=O)c2ccccc2)cc1S(=O)(=O)N1CCOCC1	2	6	4065	-2	2	-16	2.1
15	COc1ccc(CNC(=O)C(c2ccco2)N(Cc2ccccc2)C(=O)Cc2cccs2)cc1 (stereo not drawn)	11	.	4291	.	-12	-13	4.8
16	Cc1ccc(C)c(SCc2noc(C(=O)NCC3CCCO3)c2C(=O)O)c1 (stereo not drawn)	.	.	3848	.	5	-13	.
17	N#Cc1c(SCc2ccccc2)sc(C(=O)c2ccccc2)c1N	-10	.	2797	.	-1	-15	2.3
18	COc1ccc(CNC(=O)CCS(=O)(=O)Cc2cccc(Cl)c2)c(OC)c1	6	8	6104	4	-3	-6	7.7
19	COc1ccc(NC(=O)COc2coc(CN3CCc4ccccc43)cc2=O)cc1	-2	0	6322	-10	5	-14	0.2
20	O=C(NCc1ccc(C(F)(F)F)cc1)C1CC(c2cccc(F)c2)=NO1 (stereo not drawn)	18	17	4256	6	7	-25	11
21	Cc1ccc(NC(=O)C2CCCN(C3=NS(=O)(=O)c4ccccc43)C2)c(O)c1 (stereo not drawn)	-2	4	3845	-6	.	-39	0.3
22	COC(=O)C1=C(C)N(C)C(C)=C(C(=O)OC)C1c1ccc(C(=O)OC)cc1	-1	.	2397	.	-1	-8	2.7
23	C=CCN(C(=O)c1csnn1)C(C(=O)NC1CCCC1)c1ccccc1 (stereo not drawn)	11	-3	3659	7	-10	-9	3.5
24	O=C(CSc1nnc(-c2c[nH]c3ccccc23)o1)N(Cc1ccccc1)c1ccc(F)cc1	-15	6	9468	4	2	-15	-11

Reprinted from the part before: 4 compounds; new compounds follow.
cpd	smiles	Sa ugtP lethal	Mtb hypoxia rep	Bead autofluor	Mtb hypoxia rep growth	BJeLR viability	PrP UTR inh	Sa RN4220 lethal
21	Cc1ccc(NC(=O)C2CCCN(C3=NS(=O)(=O)c4ccccc43)C2)c(O)c1 (stereo not drawn)	-2	4	3845	-6	.	-39	0.3
22	COC(=O)C1=C(C)N(C)C(C)=C(C(=O)OC)C1c1ccc(C(=O)OC)cc1	-1	.	2397	.	-1	-8	2.7
23	C=CCN(C(=O)c1csnn1)C(C(=O)NC1CCCC1)c1ccccc1 (stereo not drawn)	11	-3	3659	7	-10	-9	3.5
24	O=C(CSc1nnc(-c2c[nH]c3ccccc23)o1)N(Cc1ccccc1)c1ccc(F)cc1	-15	6	9468	4	2	-15	-11
25	Cc1cc(NC(c2ccc(Cl)cc2)c2ccc3cccnc3c2O)no1 (stereo not drawn)	7	.	4966	.	-6	40	22
26	O=C(c1cc2cc(F)ccc2[nH]1)N1CCN(c2ccc(F)cc2)CC1	-1	-4	3934	10	-10	-6	2.1
27	Cc1ccc(SCCC(=O)N(C)C)cc1	2	0	5212	1	7	-31	0.9
28	COc1ccc(C(=O)OCC(=O)NCc2ccc3c(c2)OCO3)cc1[N+](=O)[O-]	5	3	2553	-2	-4	-18	1.1
29	CCOc1cc(CNc2ncc(-c3ccc(OC)cc3)n2C)ccc1O	-4	0	20656*	12	7	-10	-3.5
30	COc1ccc(NC(=O)/C(C#N)=C\c2ccc(-c3cc(C(=O)O)ccc3C)o2)cc1	-1	-1	3597	4	5	5	18
31	O=C(C[C@H]1C/C=C\CC[C@H](Cc2ccc(F)cc2)C(=O)O[C@H](c2ccccc2)CNC1=O)N[C@H](CO)Cc1ccccc1	-17	3	3902	5	.	18	-0.8
32	N#CCCN(CCC#N)c1nnc(-c2ccccc2)s1	-3	8	10645	18	-2	.	1.9
33	CCOc1ccc2c(c1)-c1c(ssc1=S)C(C)(C)N2C	25	.	4406	.	1	-34	-2.6
34	C/C=C(\C)CN1CCc2cc(OC)c(OC)cc2C1	9	6	24105*	6	-1	4	1.8
35	O=C(Nc1ccc(-n2cnnn2)cc1)C1CCC1	4	-2	?	5	6	-28	8.1
36	O=C(O)c1ccccc1-c1ccc(C=C2C(=O)N(c3ccccc3)C(=S)N(c3ccccc3)C2=O)o1	4	4	3278	8	2	2	-0.9

4 of the compounds above, in transposed form.
10	O=C(NC1CC1)c1ccc(CS(=O)(=O)c2c(Cl)cccc2Cl)o1
33	CCOc1ccc2c(c1)-c1c(ssc1=S)C(C)(C)N2C
14	Cc1ccc(NC(=O)COC(=O)[C@H](C)NC(=O)c2ccccc2)cc1S(=O)(=O)N1CCOCC1
5	CC(=O)Nc1ccc(C=NOCC(=O)Nc2ccc(C)cc2)cc1

| Compound | 10 | 33 | 14 | 5 |
| --- | --- | --- | --- | --- |
| Sa ugtP lethal | 2 | 25 | 2 | 9 |
| Mtb hypoxia rep | . | . | 6 | 19 |
| Bead autofluor | 6263 | 4406 | 4065 | . |
| Mtb hypoxia rep growth | . | . | -2 | 7 |
| BJeLR viability | -1 | 1 | 2 | . |
| PrP UTR inh | -34 | -34 | -16 | . |
| Sa RN4220 lethal | 2.6 | -2.6 | 2.1 | 4.9 |

The main list resumes, starting 2 compounds before the break.
cpd	smiles	Sa ugtP lethal	Mtb hypoxia rep	Bead autofluor	Mtb hypoxia rep growth	BJeLR viability	PrP UTR inh	Sa RN4220 lethal
35	O=C(Nc1ccc(-n2cnnn2)cc1)C1CCC1	4	-2	?	5	6	-28	8.1
36	O=C(O)c1ccccc1-c1ccc(C=C2C(=O)N(c3ccccc3)C(=S)N(c3ccccc3)C2=O)o1	4	4	3278	8	2	2	-0.9
37	CCCCOC(=O)C1=C(C)Nc2ncnn2C1c1cccc(OC)c1 (stereo not drawn)	-2	10	23328*	15	-3	-11	7.2
38	Cc1cc(C(=O)NCCC2=CCCCC2)ccc1[N+](=O)[O-]	-9	5	3236	16	1	-85	-0.1
39	O=C(NN=CC1CCCCC1)c1ccccn1	-5	7	.	13	.	.	4.1
40	COC(=O)Nc1ccc(S(=O)(=O)N2CCCC(C(=O)N3CCCCC3)C2)cc1 (stereo not drawn)	-1	2	3294	2	-10	-11	0.2
41	Cc1cc(F)ccc1N1CCC(N2CCN(C)C(CCO)C2)CC1 (stereo not drawn)	5	8	3967	-7	3	-20	-0.9
42	COC(=O)c1cn(C(=O)c2ccc(C)c(C)c2)c2ccccc12	5	-2	2496	1	0	-15	1.8
43	COC(=O)c1sc(NC(=O)c2cccc([N+](=O)[O-])c2)c(C(N)=O)c1C	0	5	2517	12	-9	-16	-0.9
44	CCOC(=O)c1ccc(NC(=O)CS(=O)(=O)c2cn(CC)c3ccccc23)cc1	-5	1	3211	-1	.	-7	2.7
45	COc1cc(/C=C/C(=O)O)cc(S(=O)(=O)NCCCO)c1OC	3	.	2180	.	-2	-1	0.9
46	Cn1nc(-c2ccc(C(=O)Nc3cccc(Cl)c3)cc2)c2ccccc2c1=O	-13	-2	?	-1	-1	-21	-11
47	Cc1cc(-c2cc(C(=O)NCc3ccccc3)on2)nc(NC2CCCC2)n1	7	8	4309	4	6	-13	2.1
48	O=[N+]([O-])c1ccc(C[n+]2cccc3ccc4cccnc4c32)cc1	3	18	4288	23	22	-10	-3.3

Some of these compounds in order of molecular weight, largest number first:
cpd	smiles	Sa ugtP lethal	Mtb hypoxia rep	Bead autofluor	Mtb hypoxia rep growth	BJeLR viability	PrP UTR inh	Sa RN4220 lethal
45	COc1cc(/C=C/C(=O)O)cc(S(=O)(=O)NCCCO)c1OC	3	.	2180	.	-2	-1	0.9
48	O=[N+]([O-])c1ccc(C[n+]2cccc3ccc4cccnc4c32)cc1	3	18	4288	23	22	-10	-3.3
39	O=C(NN=CC1CCCCC1)c1ccccn1	-5	7	.	13	.	.	4.1

The list continues.
cpd	smiles	Sa ugtP lethal	Mtb hypoxia rep	Bead autofluor	Mtb hypoxia rep growth	BJeLR viability	PrP UTR inh	Sa RN4220 lethal
49	CCOC(=O)c1ccc(NC(=O)c2nc[nH]c2C(=O)NC)cc1	0	1	3899	10	8	-22	6.1
50	Cc1cc(C(C)(C)C)ccc1OCCN(C)C	-1	10	3348	-1	-5	-4	-14
51	O=C(CN1CCN(S(=O)(=O)c2ccc(Cl)cc2)CC1)N1CCCC1	4	0	.	2	.	-10	1.0
52	Cc1cc(C)c(NC(=O)Nc2ccc3c(c2)OCO3)c(C)c1	-3	-6	.	-6	-13	-17	4.9
53	CCCCNS(=O)(=O)c1ccc2nc(SCC(=O)c3ccc(C#N)cc3)[nH]c2c1	-9	6	2820	0	-1	0	-8.6
54	OCCN(CC#CC(O)(c1ccccc1)C1CCCCC1)CCO (stereo not drawn)	11	13	3895	2	0	-26	3.0
55	Cc1cccc(CC(=O)OCn2nnc3ccccc3c2=O)c1	-5	3	5083	5	4	-6	3.8
56	Nc1nc2c(s1)CCCCCCCCCC2	25	14	?	4	-4	.	-15
57	CCN(CC)S(=O)(=O)c1cccc(NC(=O)C(=O)c2c(-c3ccccc3)cc3ccccn23)c1	-12	-13	9940	-1	0	-27	11
58	COc1ccc2nc(NC(=O)CN(C)S(=O)(=O)c3cccs3)sc2c1	12	8	9353	-3	7	-4	0.3
59	O=C(NCCc1ccccc1)C(=O)NCC1OCCN1S(=O)(=O)c1ccc(F)cc1 (stereo not drawn)	1	7	5211	7	-23	-18	-11
60	COc1ccc(NC(=O)COc2ccc(-n3cnnn3)cc2)cc1OC	-3	7	5796	8	.	-21	0.4
61	c1csc(C(c2nnnn2C2CCCCC2)N2CCN(c3nc4ccccc4s3)CC2)c1 (stereo not drawn)	15	4	4184	-2	-4	-29	4.3
62	CCOCCCNS(=O)(=O)c1ccc(NC(=O)N2c3ccccc3Sc3ccccc32)cc1	-15	12	11183	6	-9	-23	1.3
63	CCOc1ccc(NC(=O)Nc2cc(C(C)C)c(O)cc2C)cc1	5	9	4059	-2	-8	-10	1.6
64	COc1ccccc1CCNC(=O)c1cc(-c2ccccn2)nc2ccccc12	0	-1	.	0	.	2	-0.5
65	N#Cc1ccc(CN(c2ccncc2)S(=O)(=O)c2ccccc2)cc1	8	16	3774	0	-9	-32	1.9
66	Cc1cccc(C)c1NC(=S)N1CC(C)OC(C)C1 (stereo not drawn)	3	1	4150	6	-10	-6	3.5
